PD-1 reversal: activators reversing PD-1 mediated T-cell inhibition, primary screen, luminescence, primary human CD4 T cells, PD-L1 beads. CellTiter-Glo 96 h. 29,000 tested, under 10 active. activation, % (no concentration beside the values). AID 2316, 2010;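 active means replicate mean of 50% or more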;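 further: 0% = median vehicle wells and 100% = positive control; 100 nL library stock added to about 50 µL; numbers are from one replicate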
MITF inh: inhibitors of MITF, primary screen, MITF inhibitor project, cell-based, luminescence; TRPM1 promoter luciferase, 24 h; inhibition, % (concentration not given with the values); 37,000 tested, 0.28% active;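 active means most replicates at 85% or more, or half of them and the mean; inconclusive means half reach 85% but not the mean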;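 further: human melanocyte line stably carrying TRPM1 promoter luciferase reporter; 0% = vehicle wells and 100% = a positive control; the first replicate is given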
Hedgehog inh: Hedgehog pathway signaling inhibitors, primary screen, luminescence, Shh-LIGHT2 cells, Gli-luciferase; Shh-LIGHT2 Gli-luciferase reporter, 30 h; inhibition, % (test concentration not listed); 22,000 tested, 2.1% active;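 active means replicate mean of 65% or more; inconclusive means mean lower but half the replicates past it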;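 further: pathway switched on by Shh-conditioned medium diluted 1 in 25 in low serum; 100 nL library stock added to about 40 µL; 0% = median of neutral wells and 100% = positive control level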
YB-1 expression: inhibitors of YB-1 gene expression, primary screen, cell-based, fluorescence; U2OS, qRT-PCR YB-1 vs CDIP delta delta Cp, 16 h; hits give high values; zero = DMSO, each unit about twofold; delta delta Cp (YB-1 minus CDIP) (concentration not given with the values); 30,000 tested, 0.37% active; AID 434959, 2010;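 active means delta delta Cp rounded down to an integer at or above 3, about 3 SD of DMSO wells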;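 further: higher means less YB-1 transcript or more CDIP transcript relative to DMSO; stock transfer was 100 nL into about 100 µL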
* marks the source's active call; other numbers are inactive results; ? = inconclusive; nt = not tested or not shown. Only part of the results is shown; rates above refer to the full screens.

canonical_smiles	PD-1 reversal	MITF inh	Hedgehog inh	YB-1 expression
O=C1CCC(=O)N1CNc1cc(C(F)(F)F)cc(C(F)(F)F)c1	-0.5	-39	-50	0.34
C[C@@H]1CN([C@H](C)CO)C(=O)c2cc(NC(=O)C3CCCCC3)ccc2O[C@H]1CN(C)C	-0.3	0	nt	0.27
C[C@@H]1CN([C@@H](C)CO)C(=O)c2cc(NS(=O)(=O)c3cn(C)cn3)ccc2O[C@@H]1CN(C)CC1CC1	0.3	10	-34	0.029
Cc1noc(C)c1S(=O)(=O)N(C)C[C@H]1Oc2ccc(NC(=O)Cn3cnnn3)cc2CC(=O)N([C@@H](C)CO)C[C@H]1C	-0.8	-9	nt	-0.55
C[C@H](CO)N1C[C@H](C)[C@@H](CN(C)S(=O)(=O)c2cn(C)cn2)Oc2ccc(NC(=O)CCCCCC(=O)Nc3ccccc3N)cc2C1=O	0.3	5	nt	-0.079
Cc1ccc(S(=O)(=O)Nc2cccc3c2O[C@@H](CN(C)Cc2ccccc2)[C@H](C)CN([C@@H](C)CO)C3=O)cc1	nt	-7	4	-0.018
COc1ccc(CN(C)C[C@H]2Oc3c(NS(=O)(=O)c4ccc(F)cc4)cccc3C(=O)N([C@@H](C)CO)C[C@@H]2C)cc1	-0.4	-12	-33	0.31
CCc1ccc2c(c1)=C(c1sc(Nc3cccc(Cl)c3C)nc1O)C(=O)N=2	-0.2	-1	1	-0.18
C[C@@H]1CN([C@@H](C)CO)C(=O)c2cccc(NS(=O)(=O)c3ccccc3)c2O[C@@H]1CN(C)Cc1ccc(Cl)c(Cl)c1	nt	-24	-19	-0.5
COc1ccc(CN(C)C[C@H]2Oc3ccc(NC(=O)Nc4ccccc4)cc3CC(=O)N([C@H](C)CO)C[C@H]2C)cc1	nt	-17	?	0.18
CCCC1(O)Cc2c(C(C)=O)cc3cccc(O)c3c2O1 (stereo not drawn)	0.2	3	-18	0.75
C[C@@H]1CN([C@@H](C)CO)C(=O)c2cc(NC(=O)CCN3CCOCC3)ccc2O[C@H]1CN(C)Cc1ccc(Cl)c(Cl)c1	nt	-3	4	-0.12
COc1c(C)cc(Br)cc1C(=O)NC(=S)Nc1sc2c(c1C(N)=O)CCCCC2	0.2	-7	nt	nt
C[C@@H]1CCCCO[C@@H](CN(C)C(=O)Nc2ccc(C(F)(F)F)cc2)[C@@H](C)CN([C@H](C)CO)C(=O)c2cc(NS(C)(=O)=O)ccc2O1	-0.6	1	nt	-0.39
Cc1cc(C)c(OCC(=O)Nc2cccc(NC(=O)c3ccco3)c2)c(Br)c1	-0.4	34	nt	nt
C[C@@H]1CN([C@H](C)CO)C(=O)c2cc(NS(=O)(=O)c3ccccc3)ccc2O[C@@H]1CN(C)Cc1ccc(Oc2ccccc2)cc1	-2.7	35	88*	0.019
CC(O)c1cncc2c(=O)n3c(cc12)-c1[nH]c2ccccc2c1CC3 (stereo not drawn)	-0.1	19	37	0.3
Cc1cc(C(=O)Nc2cccc3c2O[C@H](CN(C)Cc2ccc(Oc4ccccc4)cc2)[C@@H](C)CN([C@H](C)CO)C3=O)n(C)n1	-5.4	54	?	0.057
CNC[C@H]1Oc2ccc(NC(=O)Cn3cnnn3)cc2C(=O)N([C@@H](C)CO)C[C@@H]1C	0.9	-8	-21	-0.043
C[C@@H]1CN([C@H](C)CO)C(=O)c2cccc(NC(=O)Nc3ccc4c(c3)OCO4)c2O[C@@H]1CN(C)Cc1ccc(Cl)c(Cl)c1	-2.9	-16	11	-0.11
Cc1noc(C)c1NC(=O)Nc1ccc2c(c1)C(=O)N([C@H](C)CO)C[C@H](C)[C@@H](CN(C)Cc1ccccc1)O2	4.4	0	nt	-0.24
C[C@@H]1CN([C@H](C)CO)C(=O)c2cccc(NS(=O)(=O)c3cn(C)cn3)c2O[C@@H]1CN(C)Cc1ccc(Cl)c(Cl)c1	nt	-13	-6	-0.2
CC(C)NC(=O)N(C)C[C@H]1Oc2c(NS(=O)(=O)c3ccc(Cl)cc3)cccc2C(=O)N([C@H](C)CO)C[C@@H]1C	1.6	-1	-9	0.47
Cc1ccnc(SCC(=O)Nc2ccccc2C)n1	-0.4	-9	nt	nt
COc1ccc(-[n+]2cc(=O)o[nH]2)cc1	-0.4	18	-16	0.38
C[C@@H]1CN([C@H](C)CO)C(=O)c2cccc(NS(=O)(=O)c3ccc(Cl)cc3)c2O[C@H]1CN(C)Cc1ccc(C(=O)Nc2ccccc2N)cc1	-1.0	12	nt	0.1
C[C@@H]1CCCCO[C@H](CN(C)C(=O)Nc2cccc3ccccc23)[C@@H](C)CN([C@H](C)CO)C(=O)c2cc(NS(=O)(=O)c3ccc(Cl)cc3)ccc2O1	-3.7	17	26	15*
Cc1nnc(SCC(=O)Nc2ccc(Cl)cc2Cl)[nH]c1=O	-1.0	-5	nt	nt
O=C(CSc1nc(-c2ccccc2)cc(C(F)(F)F)n1)c1ccccc1	1.6	-3	nt	nt
O=C(O)c1cc2ccc3cccc4ccc(c1)c2c34	0.3	-6	nt	-0.25
O=c1cc(Oc2ccc(O)cc2)oc2cc(O[C@@H]3O[C@H](CO[C@@H]4O[C@H](CO)[C@@H](O)[C@H](O)[C@H]4O)[C@@H](O)[C@H](O)[C@H]3O)cc(O)c12	1.4	6	-18	1.4
Cc1ccc(S(=O)(=O)Nc2ccc3c(c2)C(=O)N([C@H](C)CO)C[C@H](C)[C@@H](CN(C)Cc2ccccc2)OCCCC[C@@H](C)O3)cc1	-2.6	-11	68*	0.027
C[C@@H]1CN([C@@H](C)CO)C(=O)c2cccc(NC(=O)c3ccc(-c4nccs4)cc3)c2O[C@@H]1CN(C)C(=O)Nc1ccc(F)cc1	-0.9	-1	-8	-0.075
COc1ccc(NC(=O)Nc2ccc3c(c2)CC(=O)N([C@H](C)CO)C[C@@H](C)[C@H](CN(C)S(C)(=O)=O)O3)cc1	1.7	4	-30	-0.39
COCCCNCCn1cnc2c(N)ncnc21	4.4	-16	nt	nt
C[C@@H]1CN([C@@H](C)CO)C(=O)c2cc(NS(=O)(=O)c3ccc(Cl)cc3)ccc2O[C@@H]1CN(C)C(=O)Nc1ccc(C(F)(F)F)cc1	-2.2	42	8	0.29
COc1ccc(S(=O)(=O)N(C)C[C@H]2Oc3c(NS(=O)(=O)c4ccccc4)cccc3C(=O)N([C@H](C)CO)C[C@@H]2C)cc1	nt	11	-41	0.064
O=C(CCN1CCN(c2ccccc2)CC1)Nc1nccs1	-3.3	13	16	-0.26
Cc1ccc(S(=O)(=O)N(C)C[C@@H]2Oc3c(NS(=O)(=O)c4ccccc4)cccc3C(=O)N([C@@H](C)CO)C[C@@H]2C)cc1	-0.8	0	13	-0.017
CC(C)NC(=O)Nc1cccc2c1O[C@@H](CN(C)Cc1ccc(Oc3ccccc3)cc1)[C@@H](C)CN([C@@H](C)CO)C2=O	-0.2	-6	35	-0.12
Cc1noc(C)c1NC(=O)Nc1ccc2c(c1)C(=O)N([C@H](C)CO)C[C@H](C)[C@@H](CN(C)CC1CC1)OCCCC[C@@H](C)O2	3.0	-9	-21	-0.13
C[C@H]1CN([C@@H](C)CO)C(=O)c2cccc(NS(=O)(=O)c3ccc(F)cc3)c2O[C@@H]1CN(C)C(=O)Nc1ccc2c(c1)OCO2	0.0	3	-1	0.7
C[C@H]1CN([C@@H](C)CO)C(=O)Cc2cc(NS(=O)(=O)c3ccc(Cl)cc3)ccc2O[C@@H]1CN(C)C(=O)Nc1ccc(C(F)(F)F)cc1	-0.7	-7	?	-0.34
COc1cc(S(C)=O)ccc1-c1nc2ncccc2[nH]1 (stereo not drawn)	1.1	-10	-49	-0.29
C[C@H](CO)N1C[C@H](C)[C@@H](CN(C)S(=O)(=O)c2ccccc2)Oc2c(NC(=O)Nc3ccccc3)cccc2C1=O	-0.6	-16	-40	0.23
C[C@@H]1CN([C@H](C)CO)C(=O)Cc2cc(NS(=O)(=O)c3cn(C)cn3)ccc2O[C@@H]1CN(C)C(=O)Nc1ccc2c(c1)OCO2	0.9	-9	-10	0.13
COc1cccc(NC(=O)Cn2cnc3c(sc4nc5c(cc43)COC(C)(C)C5)c2=O)c1	-0.4	-8	nt	nt
Cc1cc2nc(SCCN3CCCC3)[nH]c2cc1C	0.0	-30	13	-0.33

Reformatted as labelled records: entries from further up.
C[C@H]1CN([C@@H](C)CO)C(=O)Cc2cc(NS(=O)(=O)c3ccc(Cl)cc3)ccc2O[C@@H]1CN(C)C(=O)Nc1ccc(C(F)(F)F)cc1
- PD-1 reversal: -0.7
- MITF inh: -7
- Hedgehog inh: ?
- YB-1 expression: -0.34
C[C@H]1CN([C@@H](C)CO)C(=O)c2cccc(NS(=O)(=O)c3ccc(F)cc3)c2O[C@@H]1CN(C)C(=O)Nc1ccc2c(c1)OCO2
- PD-1 reversal: 0.0
- MITF inh: 3
- Hedgehog inh: -1
- YB-1 expression: 0.7
COc1cc(S(C)=O)ccc1-c1nc2ncccc2[nH]1 (stereo not drawn)
- PD-1 reversal: 1.1
- MITF inh: -10
- Hedgehog inh: -49
- YB-1 expression: -0.29
Cc1noc(C)c1NC(=O)Nc1ccc2c(c1)C(=O)N([C@H](C)CO)C[C@H](C)[C@@H](CN(C)CC1CC1)OCCCC[C@@H](C)O2
- PD-1 reversal: 3.0
- MITF inh: -9
- Hedgehog inh: -21
- YB-1 expression: -0.13

Further compounds follow.
Each structure is followed by: PD-1 reversal | MITF inh | Hedgehog inh | YB-1 expression
CC(C)NC(=O)N(C)C[C@@H]1Oc2c(NC(=O)Nc3ccccc3)cccc2C(=O)N([C@H](C)CO)C[C@@H]1C
→ 0.5 | -6 | -52 | 1.4
C[C@H](CO)N1C[C@H](C)[C@H](CN(C)C(=O)Nc2ccccc2)Oc2ccc(NC(=O)Nc3ccccc3)cc2CC1=O
→ 0.5 | -12 | -4 | 0.13
C[C@@H]1CN([C@H](C)CO)C(=O)c2cccc(NC(=O)c3nc4ccccc4s3)c2O[C@H]1CN(C)Cc1ccncc1
→ -2.6 | 3 | 7 | -0.23
CC(C)NC(=O)Nc1ccc2c(c1)C(=O)N([C@@H](C)CO)C[C@H](C)[C@@H](CN(C)C(=O)Nc1cccc3ccccc13)O2
→ 5.6 | -4 | nt | -0.27
COc1ccc(S(=O)(=O)Nc2ccc3c(c2)CC(=O)N([C@H](C)CO)C[C@@H](C)[C@H](CN(C)Cc2ccccc2)O3)cc1
→ 1.6 | -11 | 23 | 0.13
CC1=C(C(=O)Nc2ccccc2)C(c2ccccn2)n2ncnc2N1 (stereo not drawn)
→ -0.1 | -35 | nt | nt
CC(C)NC(=O)N(C)C[C@@H]1Oc2ccc(NC(=O)CCC(F)(F)F)cc2C(=O)N([C@@H](C)CO)C[C@@H]1C
→ 1.6 | -14 | nt | 0.01
C=C1C(=O)O[C@H]2C[C@H](C)[C@@H]3CC(=O)C(C)=C3C[C@H]12
→ -8.9 | 13 | 11 | -0.72
C[C@@H]1CN([C@H](C)CO)C(=O)Cc2cc(NC(=O)C3CC3)ccc2O[C@@H]1CN(C)Cc1ccccc1
→ nt | -13 | nt | -0.29
C[C@H](CO)N1C[C@H](C)[C@H](CN(C)C(=O)Nc2ccccc2)Oc2ccc(NS(=O)(=O)c3cn(C)cn3)cc2CC1=O
→ 2.5 | -13 | -3 | 0.17
CCN(CC)c1n[nH]nc1-c1cccc(Cl)c1
→ 0.7 | -93 | -129 | -0.045
O=C(CSc1nnc(-c2ccccc2F)n1-c1ccccc1)Nc1ccccc1C(F)(F)F
→ 0.5 | 14 | nt | nt
COc1ccccc1OC(=O)NC(C)C
→ 0.1 | -11 | -22 | -0.36
COc1ccc(CN(C)C[C@@H]2Oc3c(NS(=O)(=O)c4ccc(OC)cc4)cccc3C(=O)N([C@@H](C)CO)C[C@@H]2C)cc1
→ nt | -10 | -16 | 0.17
C=C(C)C(=O)O[C@H]1CC(=C)C2C[C@H](O)[C@](O)(CO)C2[C@H]2OC(=O)C(=C)[C@H]12 (stereo partly drawn)
→ -13 | -11 | -3 | 0.43
CC(C)NC(=O)Nc1cccc2c1O[C@H](CN(C)C(=O)Nc1ccc(C(F)(F)F)cc1)[C@H](C)CN([C@H](C)CO)C2=O
→ nt | 0 | 10 | -0.25
CNC[C@H]1Oc2c(NC(=O)Nc3c(C)noc3C)cccc2C(=O)N([C@@H](C)CO)C[C@@H]1C
→ nt | 6 | -8 | 0.19
C[C@@H]1CN([C@@H](C)CO)C(=O)Cc2cc(NC(=O)C3CCCCC3)ccc2O[C@@H]1CN(C)C(=O)Nc1ccc(F)cc1
→ -0.7 | -10 | -17 | 0.031
Cc1ccc(-n2c(SCC(=O)N3CCOCC3)nnc2-c2ccncc2)cc1
→ 1.8 | -3 | nt | nt

Screens: PubChem, Broad Institute
